Screening data (PubChem)
Biofilm kill mix = clotrimazole potentiators killing C. albicans biofilm, primary screen, 4-compound mixtures | 120,000 tested, 0.02% active | inhibition, % at 7.6 µM | C. albicans biofilm persisters + clotrimazole, fluorescence viability; primary screen in compound mixtures of four per well | AID 1242, 2008;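 active means inhibition above 30.3% in the primary screen of four-compound pools, then above 30% when the compound was retested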;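 further: compounds exposed to preformed 24 h biofilms for 48 h; the number belongs to the whole pool; some results filed as inactive read as strong as hits; inactives centre near 12; 0% = biofilm with clotrimazole alone and 100% = kill control; retested singly at about 60 µM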
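Test system: C. albicans biofilms. Buffer or medium: RPMI/MOPS medium, pH 7.0. Timing: 48 h compound exposure at 37 °C. Technique: Alamar Blue fluorescence. Evaluation: percent inhibition of biofilm viability.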
* marks the source's active call; other numbers are inactive results; & = joins results of further samples. The list is partial, so the mix of outcomes need not match the whole.

SMILES	Biofilm kill mix
Cc1ccc(NC(=O)CC2=NC(=O)C(CC(=O)Nc3ccccc3C)S2)cc1 (stereo unspecified)	14
N#CCC(=O)N/N=C/c1cn(Cc2ccccc2C#N)c2ccccc12	19
COCCNC(=O)C(c1ccc(F)cc1)N(C(=O)CCC(=O)Nc1nccs1)c1ccc(C)cc1 (stereo unspecified)	14
O=C(N/N=C/c1sc(N2CCCCC2)nc1-c1cccs1)c1cccnc1	10
COc1ccc(N(CC(=O)Nc2c(C)n(C)n(-c3ccccc3)c2=O)S(=O)(=O)c2ccccc2)cc1OC	15
Oc1ccc(N=Nc2nccs2)c(O)c1	14
O=C(Nc1cccc(S(=O)(=O)N2CCCCC2)c1)c1ccc(OCC2CCCO2)cc1 (stereo unspecified)	8
CC(C)Oc1ccc(C(=O)Nc2ccccc2N2CCOCC2)cc1	-2
COc1ccc(CCNC(=O)CCCCCN2C(=O)c3ccccc3C2=O)cc1OC	10
CCOc1ccc(Cn2c(=O)sc3ccccc32)cc1	16
CNC(=S)NCCc1ccccc1	17
Cc1cc(C(=O)NNC(=O)c2ccc(Cl)cc2)no1	10
Cc1ccc(NCc2n[nH]c(=S)n2-c2ccccc2)cc1Cl	19
Cc1c(Cl)c(=O)oc2cc(OC(C)C)ccc12	14
COCc1c(C(=O)OCC(=O)NCCN2C(=O)CSC2=O)oc2ccccc12	19
CCn1nnnc1NC(=O)c1cccc(OC)c1	-2
COc1cc(NC(=O)C2CCCN(c3ncccn3)C2)cc(OC)c1 (stereo unspecified)	10
O=C(NCCc1ccccc1)C(=S)N1CCCCC1	2
CCOC(=O)CSc1nnc(-c2ccccc2)o1	12
COc1ccc(NC(=O)Cc2ccc(Cl)cc2Cl)cn1	9
O=C(CN1CCN(c2ccccc2F)CC1)NC(=O)NCc1ccco1	8
CC(=O)Nc1ccc(SCC(=O)Nc2cc(C(C)(C)C)nn2-c2ccccc2)cc1	11
CC(C)C(NC(=O)c1ccccc1Br)c1ccccc1 (stereo unspecified)	10
COc1ccc(OC)c(/C=C2\S/C(=N/NC(=O)c3ccc4ccccc4c3)NC2=O)c1	18
CCOc1ccc(C(=O)Nc2ccccc2NC(C)=O)cc1OCC	15
CCCCNC(=O)CNC(=S)N(CCCN1CCOCC1)Cc1cccs1	14
O=C(COc1ccc(Br)cc1)Nc1ccccc1N1CCCC1	18
O=C(O)c1cc(-c2ccccc2)nc2ccccc12	22
COc1ccc(O)c(N)c1	30
Cc1ccc(C)c(OCCn2cc(/C=C(/C#N)C(=O)NCC3CCCO3)c3ccccc32)c1 (stereo unspecified)	4

17 entries from above, comma-delimited:
molecule,Biofilm kill mix
CNC(=S)NCCc1ccccc1,17
Cc1cc(C(=O)NNC(=O)c2ccc(Cl)cc2)no1,10
Cc1ccc(NCc2n[nH]c(=S)n2-c2ccccc2)cc1Cl,19
Cc1c(Cl)c(=O)oc2cc(OC(C)C)ccc12,14
COCc1c(C(=O)OCC(=O)NCCN2C(=O)CSC2=O)oc2ccccc12,19
CCn1nnnc1NC(=O)c1cccc(OC)c1,-2
COc1cc(NC(=O)C2CCCN(c3ncccn3)C2)cc(OC)c1 (stereo unspecified),10
O=C(NCCc1ccccc1)C(=S)N1CCCCC1,2
CCOC(=O)CSc1nnc(-c2ccccc2)o1,12
COc1ccc(NC(=O)Cc2ccc(Cl)cc2Cl)cn1,9
O=C(CN1CCN(c2ccccc2F)CC1)NC(=O)NCc1ccco1,8
CC(=O)Nc1ccc(SCC(=O)Nc2cc(C(C)(C)C)nn2-c2ccccc2)cc1,11
CC(C)C(NC(=O)c1ccccc1Br)c1ccccc1 (stereo unspecified),10
COc1ccc(OC)c(/C=C2\S/C(=N/NC(=O)c3ccc4ccccc4c3)NC2=O)c1,18
CCOc1ccc(C(=O)Nc2ccccc2NC(C)=O)cc1OCC,15
CCCCNC(=O)CNC(=S)N(CCCN1CCOCC1)Cc1cccs1,14
O=C(COc1ccc(Br)cc1)Nc1ccccc1N1CCCC1,18

(further entries)
SMILES	Biofilm kill mix
O=C(/C=C/c1ccc(Cl)cc1Cl)Nc1cccc(S(=O)(=O)NC2=NCCC2)c1	1
Cc1ccc(CN2C(=O)NC(Cc3c[nH]c4ccccc34)C2=O)cc1 (stereo unspecified)	12
CC(C)(C)Nc1nc(NCc2cccnc2)nc(N2CCOCC2)n1	12
CCN(CC)S(=O)(=O)c1ccc(C)c(C(=O)Oc2cccc(-c3cnc4ccccc4n3)c2)c1	6
COc1ccc(N(CC(=O)NCCC2=CCCCC2)S(=O)(=O)c2ccccc2)cc1	27
O=C(Cn1c[n+](CC(=O)c2ccc([N+](=O)[O-])cc2)cn1)c1ccc([N+](=O)[O-])cc1	18&20
Cc1cc(C)n2cc(-c3ccc(Cl)cc3)c(C(=O)O)c2n1	12
O=C(N=C1c2ccccc2CN1c1ccc(F)c(Cl)c1)c1cccnc1Cl	5
O=C1NC(C(F)(F)F)(C(F)(F)F)N=C2SC=CN12	17
Cc1[nH]c2ccc(Cl)cc2c(=O)c1CN1CCCC1	23
Cc1nn(Cc2ccccc2)c(Cl)c1C(=O)OCC#N	13
CN(CCOc1ccccc1)CC(=O)Nc1ccc([N+](=O)[O-])cc1Cl	8
COc1ccc(CC2(CO)CCN(S(=O)(=O)c3sccc3C)CC2)cc1	8
O=C(C1=C[C@H](c2coc3ccccc3c2=O)C[C@H](OCCCCO)O1)N1CCN(Cc2ccc3c(c2)OCO3)CC1	17
COC(=O)c1c(-c2c(Cl)cccc2Cl)noc1NC(=O)NN1CCCCC1	14
COc1ccc(CCN(Cc2nc3ccccc3c(=O)[nH]2)C(=O)C2CC2)cc1	29
CCCC[n+]1ccn(-c2nc3ccccc3nc2[N-]S(=O)(=O)c2ccc(Cl)cc2)c1	13
C#CCOCCOCCOCCNc1nc(N2CCN(C(=O)Cn3cc(CCCN=C(N)N)nn3)CC2)nc(N2CCN(C(=O)[C@H]([C@@H](C)CC)n3cc(CCCN=C(N)N)nn3)CC2)n1	5
O=C(C(=O)N1CCOCC1)c1cn(CC(=O)N2CCc3ccccc3C2)c2ccccc12	15
Oc1[nH]c2ccc(Br)cc2c1N=Nc1ccc(C(F)(F)F)cn1	9
O=C(NNC(=O)c1nn(-c2ccc(F)cc2)ccc1=O)c1ccc(C(F)(F)F)cc1	19
Cc1cccc(C(=O)Nc2nnc(SCC(=O)Nc3ccc4c(c3)oc3ccccc34)s2)c1	26
O=C(CSc1ncccn1)N/N=C/c1ccc(OC2CSC2)cc1	1
CCOC(=O)c1ccc(NC2=CC(=O)CC(c3ccco3)C2)cc1 (stereo unspecified)	15
CC1CC(=O)N(c2ccc(NCCc3ccccc3)c([N+](=O)[O-])c2)C1=O (stereo unspecified)	18
COc1ccc(CN2CCN(Cc3cn(C)nc3-c3ccccc3)CC2CCO)c(C)c1C (stereo unspecified)	-3
Cc1c(Cl)cccc1NC(=S)NCc1ccco1	3
N#CC1=C(N)Oc2c(ccc3cccnc23)C1c1ccncc1 (stereo unspecified)	18
O=C(CN1C(=O)c2ccccc2C1=O)Nc1cccc([N+](=O)[O-])c1	9
N=c1n(Cc2ccccc2Cl)c2ccccc2n1CC(O)c1ccco1 (stereo unspecified)	13
Cc1cc2c(c(SCC(N)=O)n1)C(=O)OC2	8
Cc1oc(C(N)=O)cc1COc1ccc(C(N)=O)cc1	24
O=C(Cc1cccc2ccccc12)Nc1ccc(OC(F)F)c(Cl)c1	3
CCCCCCCn1c(=N)n(CC(O)c2ccco2)c2ccccc21 (stereo unspecified)	32
O=C1NN(c2cccc(Br)c2)C(=O)/C1=C/c1cccs1	19
COc1ccc(C(=O)O/N=C(\N)c2ccccc2)c(OC)c1	14
O=Cc1c(Sc2ccccn2)nc2ccccn2c1=O	8
O=C(O)c1ccc(N2CCCCS2(=O)=O)cc1	1
Cc1ccccc1C(=O)NC(=S)NCc1cccnc1	18
O=c1[nH]c(=O)n(Cc2ccccc2)c2nc(-c3ccc(Oc4ccc(F)cc4)c([N+](=O)[O-])c3)n(CCO)c12	4
CCc1ccc(NC(=O)c2ccc(OC)c([N+](=O)[O-])c2)cc1	20
COCCCNC(=O)CC(=O)N/N=C\c1ccc(SC)cc1	0
O=[N+]([O-])c1ccccc1/C=C/C=N/n1c(-c2ccco2)n[nH]c1=S	11
Cc1ccc(C)c(N=Nc2ccc(O)c3ncccc23)c1	17
COc1cc(CC(=O)NCC2COc3ccccc3O2)cc(OC)c1OC (stereo unspecified)	15
O=C1NN(c2ccccc2)C(=O)/C1=C\c1ccc(-c2cc([N+](=O)[O-])ccc2O)o1	32
C=CCn1c(SCC(=O)Nc2ccc(F)cc2)nc2cc(C(=O)O)ccc2c1=O	8
O=C(CCCc1ccccc1)NC1CC1	6
Cc1cccc(Nc2nnc(SCC(=O)c3ccc(Br)s3)s2)c1C	16
Cc1cc(C)n(C(=O)COc2ccc(Cl)cc2Cl)n1	12

(list continues)
SMILES	Biofilm kill mix
Cc1ccc(NC(=S)NCCCN2CCOCC2)cc1C	23
COc1ccc(-c2c(C)[nH]n3c(=O)c(Cc4ccccc4)c(C)nc23)cc1	6
COC(=O)C1CCN(CC(=O)NC(=O)NC2CCCCC2)CC1	21
CCCCOC(=O)CCCN1C(=O)/C(=C2\SC(=S)N(CCCC(=O)OCCCC)C2=O)SC1=S	19
CCCCCC(=O)Nc1cccc(C2=NOC3(C2)C[C@@H](C(N)=O)N(C(=O)c2cc([N+](=O)[O-])cc([N+](=O)[O-])c2C)C3)c1 (stereo partly specified)	13
Cc1ccc(NC(=O)CN2CCC(NC(=O)Cc3ccccc3)CC2)c(C)c1	17
O=C(c1ccc(F)cc1)C1CCN(Cc2cn[nH]c2-c2ccc(F)cc2)CC1	0
COc1ccc(C[C@H]2CN3C(=NC[C@H]3C)N2CCNC(=O)CCC2CCCCC2)cc1	15
COc1ccc(Oc2cccc(Cl)c2CNC(=O)CCC(=O)O)cc1	29
NC(=O)Cn1cc(C(=O)COc2ccccc2)c2ccccc21	8
CCOC(=O)C1=C(N)Oc2c(oc(CO)cc2=O)C1c1ccccc1 (stereo unspecified)	10
CN(C)C=NC(=O)c1cc(C(=O)c2ccccc2Cl)c[nH]1	-20
Cc1ccc(CN2CCN(Cc3ccc(C)s3)CC2CCO)cc1 (stereo unspecified)	12
COc1ccc(N2C(=O)C(Cc3ccccc3)NC2=S)cc1 (stereo unspecified)	7
O=C(c1cc([N+](=O)[O-])ccc1N1CCOCC1)N1CCOCC1	17
Cc1cc2cc(CN(CCN(C)C)C(=S)NCc3ccco3)c(=O)[nH]c2cc1C	27
NC(=O)[C@H]1CC2(CC(c3cccc(NC(=O)[C@H]4CCC(=O)N4)c3)=NO2)CN1C(=O)c1ccccc1 (stereo partly specified)	13
CCc1nnc(NC(=O)C2CCCN(S(=O)(=O)c3ccc(OC)cc3)C2)s1 (stereo unspecified)	8
O=c1cc(COc2ccccc2[N+](=O)[O-])nc2sccn12	20
CCOC(=O)c1c(CSCc2ccccc2)oc2ccc(O)c(CN(C)C)c12	19
O=C(c1cn(-c2ccc(Cl)c(Cl)c2)nn1)C1CC1	13
CS(=O)c1ccccc1O (stereo unspecified)	10
CCOC(=O)C(=CNc1nc2ccc(C(=O)OCC)cc2s1)C(=O)OCC	20
N#Cc1ccccc1CN1C(=O)NC(Cc2c[nH]c3ccccc23)C1=O (stereo unspecified)	5
O=C(Nc1nnc(C2CC2)s1)C1CCCO1 (stereo unspecified)	15
COc1ccc(-c2nc3cc([N+](=O)[O-])ccc3o2)cc1	10
CC(C)(C)SCCNS(=O)(=O)c1ccc(Cl)cc1	14
CCN(CC)c1ccc(/C=N/N2CCN(Cc3ccccc3)CC2)c(O)c1	13
CN(C)S(=O)(=O)c1ccc(C(=O)OCCn2cnc3c2c(=O)n(C)c(=O)n3C)cc1	9
Cc1ccc2cc(CN(CCN(C)C)C(=S)Nc3ccccc3)c(=O)[nH]c2c1C	0
N#C/C(=C/c1cn[nH]c1-c1cccc(Br)c1)C(=O)O	17
O=C(CCNC(=O)Cn1ccc2ccccc2c1=O)NCCc1ccccc1Cl	21
COc1cc(C(=O)Nc2ccc(N3CCOCC3)cc2)ccc1OCc1c(C)noc1C	-1
O=C(OC1Cn2c(=O)ccc(=O)n2C1)c1ccc([N+](=O)[O-])cc1	12
Clc1cc(Br)ccc1OCCCNCc1ccccc1	14
COc1ccc(CC(=O)N(c2ccccc2)c2nc(C)cs2)cc1	20
O=C(Cn1nnc(-c2cccs2)n1)N1CCOCC1	21
COc1ccc(N2CC(C(=O)N/N=C/c3ccc([N+](=O)[O-])cc3)CC2=O)cc1 (stereo unspecified)	11
O=c1cc(-c2ccccc2Cl)oc2cc(O)cc(O)c12	8
Cc1ccc(NCC(=O)N/N=C/c2cccc(Oc3ccccc3)c2)cc1	10
Cc1ccccc1CNc1nnnn1C	15
O=C(COc1ccc(Br)cc1Br)NC(=O)NC1CCCC1	1
O=C(Cn1c(=O)[nH]c2ccccc2c1=O)N1CCN(c2cccc(Cl)c2)CC1	6
Cc1cc(Nc2nc(Cl)c(Cl)cc2Cl)n(-c2ccccc2)n1	2
Cc1cc(N)n(-c2ccc(S(=O)(=O)N3CCCC3)cc2[N+](=O)[O-])n1	12
C[C@@H]1CC[C@]2(O[C@@H](CCO)C[C@H](O)[C@H]2O)O1	6
CCOc1ccccc1NC(=O)Nc1cc(S(=O)(=O)N(C)C)ccc1C	19
c1ccc(-c2nnc(-c3ccccc3)nn2)cc1	25
COc1cc(C(=O)NC2(C(F)(F)F)NC(=O)N(CCCc3ccccc3)C2=O)cc(OC)c1OC (stereo unspecified)	17
Cc1ccc(C)c(OCCCNC2CCCC2)c1C	7
Cc1ccc(CN2CCNC(=O)C2CC(=O)N(C)C(C2CC2)C2CC2)o1 (stereo unspecified)	14
